Screening results deposited in PubChem by Johns Hopkins Ion Channel Center.
KCNQ2 pot: potentiators of rat KCNQ2 potassium channel | CHO-K1 KCNQ2, FluxOR thallium flux fluorescence; stronger effect = higher value | actives 0.54% (n = 310,000) | B-score at 10 µM | Potassium voltage-gated channel subfamily KQT member 2 (Rattus norvegicus), O88943;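 active = fluorescence ratio B-score at least 3 SD of library B-scores, with initial fluorescence B-score within 3 SD, cut at about 5.3 in these data; same plate scores as AID 2156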;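 note: B-score of peak minus minimum over baseline fluorescence ratio after K+ and Tl+ stimulus; positive B-score means potentiation of KCNQ2 with more thallium influx and brighter signal; only the inactives scoring about 0 or higher are listed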
Target sequence (O88943 whole entry, looked up): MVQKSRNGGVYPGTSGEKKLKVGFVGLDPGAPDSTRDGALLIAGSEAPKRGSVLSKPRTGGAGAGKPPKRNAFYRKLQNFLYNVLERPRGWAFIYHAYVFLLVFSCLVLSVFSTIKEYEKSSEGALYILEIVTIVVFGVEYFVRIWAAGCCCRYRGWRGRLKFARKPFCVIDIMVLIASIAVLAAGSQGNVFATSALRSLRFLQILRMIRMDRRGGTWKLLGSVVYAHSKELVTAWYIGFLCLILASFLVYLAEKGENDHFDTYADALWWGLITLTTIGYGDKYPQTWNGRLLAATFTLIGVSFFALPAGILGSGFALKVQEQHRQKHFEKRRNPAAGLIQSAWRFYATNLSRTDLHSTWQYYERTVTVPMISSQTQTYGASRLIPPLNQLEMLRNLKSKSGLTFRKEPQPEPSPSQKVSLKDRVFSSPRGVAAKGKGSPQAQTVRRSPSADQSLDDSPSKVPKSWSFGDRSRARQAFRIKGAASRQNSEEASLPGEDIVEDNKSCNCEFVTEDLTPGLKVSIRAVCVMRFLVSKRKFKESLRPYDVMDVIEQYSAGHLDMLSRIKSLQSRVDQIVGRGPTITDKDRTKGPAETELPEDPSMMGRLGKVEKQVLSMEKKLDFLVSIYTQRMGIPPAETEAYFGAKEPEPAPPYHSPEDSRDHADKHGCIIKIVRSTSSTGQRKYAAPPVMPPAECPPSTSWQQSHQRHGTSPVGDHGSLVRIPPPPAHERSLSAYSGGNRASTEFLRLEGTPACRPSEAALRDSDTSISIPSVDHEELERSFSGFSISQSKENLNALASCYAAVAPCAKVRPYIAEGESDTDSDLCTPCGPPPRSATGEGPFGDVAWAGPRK
KCNQ2 pot baseline: further read-out of KCNQ2 pot, marked with its call; B-score; compound at 10 µM; measured here: initial fluorescence intensity artifact check;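 brightness before thallium and not channel activity; 0 = typical well and far values either way flag optical interference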
Active calls of the source: *. These rows are one share of the data. The share of hits here may be higher or lower than overall.

KCNQ2 pot	KCNQ2 pot baseline	Structure
0.98	0	CC(=O)c1c(N2CCOCC2)[nH]c(-c2ccccc2)nc1=S
0.95	-0.04	O=C(CCCCCNC(=S)Nc1ccccc1)C[N+](=O)[O-]
0.99	0.02	COCC(=O)Nc1cc(C(=O)NCCc2ccccc2)ccc1Cl
1	-0.02	COc1ccc(C(=O)NNC(=O)CSc2nnc(C)n2CC2CCCO2)cc1 (centres undefined)
0.84	0.84	COc1ccc(Cl)cc1NC(=O)CN(C)C(=O)c1cc2ccccc2cc1O
2.6	0.4	CCCCn1c(=S)[nH]c2cc(S(=O)(=O)N3CCCCC3)ccc21
0.33	1.7	COCCN(C(=O)CCl)C(C(=O)NC1CCCCC1)c1ccccc1C (centres undefined)
1.9	-1.2	O=C(Cc1ccc(Cl)c(Cl)c1)Nc1cccc2ncccc12
0.19	1.3	COc1ccc(NC(=O)/C=C/c2cccc(F)c2)cn1
1.1	0.59	O=C(Nc1cccc(F)c1)c1ccc2ncsc2c1
0.89	-2.8	Cc1onc(-c2c(F)cccc2Cl)c1C(=O)Nc1nnc(C(F)(F)F)s1
2.6	0.67	N/C(=N\OS(=O)(=O)c1ccc2ccccc2c1)c1cccnc1
2.8	1.1	Cc1nc2ccccc2nc(=O)c1NNc1ccccc1
1.6	-0.05	Cn1c(=O)n(CC(=O)Nc2ccc(F)cc2)c2ccccc21
0.75	0.09	O=C(c1ccccc1)c1nc2ccccc2[nH]c1=O

A draw from above in order of heavy-atom count, low to high.
KCNQ2 pot	KCNQ2 pot baseline	Structure
0.75	0.09	O=C(c1ccccc1)c1nc2ccccc2[nH]c1=O
0.19	1.3	COc1ccc(NC(=O)/C=C/c2cccc(F)c2)cn1
0.95	-0.04	O=C(CCCCCNC(=S)Nc1ccccc1)C[N+](=O)[O-]
0.98	0	CC(=O)c1c(N2CCOCC2)[nH]c(-c2ccccc2)nc1=S
2.6	0.67	N/C(=N\OS(=O)(=O)c1ccc2ccccc2c1)c1cccnc1
0.33	1.7	COCCN(C(=O)CCl)C(C(=O)NC1CCCCC1)c1ccccc1C (centres undefined)
1	-0.02	COc1ccc(C(=O)NNC(=O)CSc2nnc(C)n2CC2CCCO2)cc1 (centres undefined)

(listing goes on)
KCNQ2 pot	KCNQ2 pot baseline	Structure
0.81	-1.3	CCCN(CCC)CCOc1cc(C)ccc1C(C)C
0.4	2	Cc1ccc(C2NC(=O)c3ccccc3N2)s1 (centres undefined)
2.8	0.38	COc1ccc(NC(C)c2cc(Cl)ccc2O)cc1 (centres undefined)
1.1	-1.1	CC(C)C(=O)NC(=S)Nc1ccccc1C(=O)NC1CCCCC1
0.29	1.4	COc1ccc(-c2cc(C(=O)N3CCN(C(=O)c4ccco4)CC3)[nH]n2)cc1
0.7	-0.03	O=C(CCn1c(=O)oc2ccccc21)NC1=NCCS1
0.1	-0.28	CC(C)NS(=O)(=O)c1ccc(NC(=O)C2CC3C=CC2C3)cc1 (centres undefined)
0.01	1.7	CCN(c1ccccc1)S(=O)(=O)c1cc2c(cc1C)N(C)CCO2
0.15	0.14	CCCCn1c(N)c(N(CCOC)C(=O)c2ccco2)c(=O)[nH]c1=O
1.1	-0.63	O=C(O)C(Cc1ccccc1)N1C(=O)/C(=C/C=C/c2ccco2)SC1=S (centres undefined)
0.25	1.3	COc1cc(NC(=O)NS(=O)(=O)c2ccc(C)cc2)cc(OC)c1
0.65	-0.55	CCn1c(=S)sc2c(=O)n(CC(=O)NCCCc3ccccc3)c(C)nc21
0.01	-1.9	COc1cccc(-c2c(C(=O)N/N=C/c3cccs3)nnn2-c2nonc2N)c1
1.4	0.05	CCOC(=O)c1cc(CC)sc1NC(=O)c1cccc(N2C(=O)CCC2=O)c1
0.51	-0.49	O=c1c2[nH]c3ccc(Br)cc3c2ncn1Cc1ccncc1
4.8	-0.4	O=C(CCl)Nc1ccc(Sc2ccc(NC(=O)CCl)cc2)cc1
0.16	0.46	O=C(NCCCn1ccnc1)C1CCCN(S(=O)(=O)c2cc(Cl)ccc2Cl)C1 (centres undefined)
1.2	-0.58	Cc1cccc(NC(=O)/C=C/c2cccs2)n1
2.1	0.14	CC1CCN(C(=O)CN2C(=O)COc3ccc(Cl)cc32)CC1
0.84	-0.56	O=c1[nH]cnc2scc(-c3ccc(Br)cc3)c12
0.72	-0.9	COc1ccc(C)cc1NC(=O)CCN1CCN(C/C=C/c2ccccc2)CC1
0.05	-0.67	CCC(C)(C(=O)NC1CCCC1)N(C(=O)c1cnccn1)c1ccccc1 (centres undefined)
0.75	-0.32	N#C/C(=C(/O)CSc1ccccn1)c1nc2ccccc2s1
0.06	3.1	COc1cc(C)ccc1OCCCOc1ccccc1Cl
1.2	1.1	CC(C)C(=O)c1cn(CC(=O)NCc2ccc3c(c2)OCO3)c2ccccc12
0.3	-1.1	Cc1ccc(N(CC(=O)Nc2cccc(C)c2)S(=O)(=O)c2cccc3nonc23)cc1
1.6	-0.39	Cc1ccnc(NC(=O)c2ccc(S(=O)(=O)c3ccccc3)cc2)c1
0.35	-0.51	CCN(CC)c1nc2c(s1)C(=O)NCCC2
0.64	-0.14	CC1(C)CC(=O)C(C=NC2CCCCC2)=C(O)C1
1.8	0.29	COc1cc2ncnc(NCc3ccccc3F)c2cc1OC
1.8	1.4	Cc1nc(-n2cc(F)c(=O)[nH]c2=O)c2nc(C)oc2n1
0.87	0.38	O=[n+]1c2c(n([O-])c3cc(F)c(F)cc31)CCCC2
1.3	0.01	Cc1sc2ncn(CC(=O)NCC3COc4ccccc4O3)c(=O)c2c1S(=O)(=O)N1CCCCC1 (centres undefined)
0.7	-0.47	COc1ccc(CCNC(=O)C2CCN(S(=O)(=O)N3CC(C)CC(C)C3)CC2)cc1OC (centres undefined)
0.39	0.42	CCOC(=O)C1=C(COC(=O)CSc2ccc(Br)cc2)NC(=O)NC1C (centres undefined)
1.3	0.22	CNCCCCOc1ccccc1-c1ccccc1
0.08	1.7	CC(C)Cn1c(-c2ccncc2)n[nH]c1=S
0.02	0.81	CCc1ccc(CNC(=O)C(=O)NCCc2ccc(OC)c(OC)c2)cc1
0.75	-0.64	Cc1ccc(C)c(NC(=S)/C(=C(\[O-])c2ccc(Cl)s2)[n+]2ccccc2)c1
0.03	1	CC(=O)Nc1ccc(S(=O)(=O)NNC(=O)COc2cccc3ccccc23)cc1
0.21	1.7	OCCCNC(=S)Nc1ccc(Nc2ccccc2)cc1
0.91	1.6	CCc1c(C(=O)OC)nnc2cc(C)nn12
1.2	2.4	CCOc1cc(-n2ncc(C#N)c2N)nc(SC)n1
0.11	0.78	CC1CCCN(S(=O)(=O)c2ccc(NC(=O)CCN3C(=O)c4ccccc4C3=O)cc2)C1 (centres undefined)
0.56	-2.7	O=C(Oc1ccc[nH]c1=O)c1cc([N+](=O)[O-])cc([N+](=O)[O-])c1
1.1	0.34	CCCNC(=O)c1ccc(SCC(=O)N(CC)CC)c([N+](=O)[O-])c1
0.08	0.76	CCC(C)(C(=O)NC1CCCCC1)N(Cc1ccco1)C(=O)c1cnccn1 (centres undefined)
1.6	0.11	O=C(C1CC1(c1ccccc1)c1ccccc1)N1CCOCC1 (centres undefined)
0.01	-0.02	CN1c2ccccc2C(O)=C(C(=S)Nc2ccc(Cl)cc2)S1(=O)=O
0.47	-0.85	S=c1[nH]c2ccc(Cc3ccc4[nH]c(=S)[nH]c4c3)cc2[nH]1
0.96	-1.8	CCC(C(=O)NCc1ccco1)n1nc(C)n2c(cc3occc32)c1=O (centres undefined)
1	1	COc1ccc(C2CC(=O)N(C)c3ccccc3S2)cc1OC (centres undefined)
1.5	-2.6	CCCC1S/C(=N/N=C/c2ccco2)NC1=O (centres undefined)
1.8	1.4	CCCCNC(=O)CSc1nc2cc3c(cc2c(=O)n1CCCN(CC)CC)OCO3
0.11	-2.1	COC(=O)C1=C(C(=O)OC)SC2(S1)C(C(=O)OC)=C(C(=O)OC)SC1=C2c2cccc(C)c2NC1(C)C
0.4	-0.19	CC1O[C@@H](O[C@H](C)CC[C@@H](C)O[C@H]2OC(C)[C@@H](O)C[C@H]2O)C(O)C[C@H]1O (some centres undefined)
0.48	-0.15	CCN1/C(=C/C(=O)c2ccco2)Sc2ccccc21
0.63	0.15	O=C(CCn1cccc1)Nc1ccc(OC(F)(F)F)cc1
3	-2.5	O=C(O)Cc1sc(Nc2ccccc2)nc1-c1cccs1
0.14	-1.1	CCN1CN(Cc2ccco2)CNC1=S

A portion of the results above:
KCNQ2 pot	KCNQ2 pot baseline	Structure
1.1	0.34	CCCNC(=O)c1ccc(SCC(=O)N(CC)CC)c([N+](=O)[O-])c1
0.08	0.76	CCC(C)(C(=O)NC1CCCCC1)N(Cc1ccco1)C(=O)c1cnccn1 (centres undefined)

Carrying on:
KCNQ2 pot	KCNQ2 pot baseline	Structure
0.09	-1.8	O=C(O)C1CC=C(Cl)CC1C(=O)NC1CCCCC1 (centres undefined)
0.15	-1.4	NC(=O)CSc1ccc(-c2ccc(F)cc2)nn1
1.6	-1.1	COc1cccc(C(=O)COC(=O)CCC(=O)NC2CCCCC2)c1
1.9	-0.88	COc1ccc(-c2nc3ccc(N4CCCC4)cc3c(=O)[nH]2)cc1OC
0.04	0.87	COCCNc1nc(-c2ccccc2)nc2c1oc1ccccc12
0.53	0.5	Cc1ccc2cn[nH]c2c1[N+](=O)[O-]
0.38	1.8	CCCN(CCC)CCNC(=O)c1cc2c(C)nc3ccccc3c2o1
0.47	0.71	CC(C)CNc1oc(-c2ccco2)nc1C#N
0.65	1	COc1cc(/C=C/C(=O)Nc2nc3ccc(S(=O)(=O)NC(C)C)cc3s2)cc(OC)c1OC
0.53	-0.46	O=C1c2ccccc2C(=O)N1CCCC(=O)N1CCCc2ccccc21
0.24	0.66	Clc1nc2c(ccc3ccccc32)[nH]1
1.7	0.73	CC(CNC(=O)CCS(=O)(=O)c1cc2c(cc1Cl)NC(=O)CO2)c1ccccc1 (centres undefined)
0.79	-2	COC(=O)CN1C(=O)C2(C(C#N)=C(N)Oc3cc(C)oc(=O)c32)c2ccccc21 (centres undefined)
0.85	0.86	N#Cc1cc(-c2ccccc2)nnc1Sc1ccccc1
2.3	-0.1	CN(C)/C=C/C(=O)c1cnc(-c2ccc(Cl)cc2)s1
0.54	0.06	Cc1ccc(-c2nn(CC(=O)NCc3cc(-c4nn(C)c(=O)c5ccccc45)ccc3C)c(=O)c3ccccc23)cc1
1.1	-0.04	O=C(C1CCCO1)N1CCN(S(=O)(=O)c2ccc(Br)cc2)CC1 (centres undefined)
1.1	-0.65	CC(=O)C1C(c2ccc(F)cc2)c2c(noc2C)CC1(C)O (centres undefined)
0.66	-0.6	NNC(=O)CNC(=O)C12CC3CC(CC(C3)C1)C2
0.96	-1.1	CCN(CC(=O)Nc1ccc(NC(C)=O)cc1)C(=O)c1ccc2ccccc2c1
0.59	1	C/C(=N/NC(=O)CSc1nc2ccccc2s1)c1ccncc1
0.88	0.65	Cc1nc2c(c(N3CCOCC3)n1)OCC(=O)N2
0.13	-0.73	Cc1cc(=O)oc(C)c1C(=O)N[C@@H](Cc1ccccc1)C(=O)O
0.01	-0.4	O=C(C1CC(=O)N(c2ccc3c(c2)OCCO3)C1)N1CCN(c2ccccc2)CC1 (centres undefined)
0.03	-0.72	CCOC(=O)C1=C(C)N(CCCC(=O)O)C(=O)NC1c1ccccc1OS(=O)(=O)c1ccc([N+](=O)[O-])cc1 (centres undefined)
1.2	0.01	O=C(CCC1CCCC1)NCCCNC(=O)CCC1CCCC1
0.01	0.08	NC(=O)CSc1nnc(Cc2ccc3c(c2)OCO3)n1C1CCCCC1
0.18	-2	CC(Sc1nc2c(cc1C#N)CCCCC2)C(=O)O (centres undefined)
0.51	0.01	N#CCCN1CCN(Cn2c3ccccc3c3ccccc32)CC1
0.69	-0.18	CCOC(=O)Cn1cc(C#N)c2ccccc21
0.78	0.8	CC(CNC(=O)c1cc(COc2c(F)cccc2F)on1)Oc1cccnc1 (centres undefined)
0.64	0.92	Cc1cc(C(=O)OCC(=O)N2CC(=O)Nc3ccccc32)c(C)n1-c1ccccc1
0.34	-0.01	C=CCn1c(SCC(=O)Nc2nnc(CC)s2)nnc1-c1cccnc1
0.24	0.04	CC(=O)c1ccc(OCC(O)CN2CCc3ccccc3C2)cc1 (centres undefined)
0.16	-2.5	CCn1cc(C(=O)OCC(=O)Nc2ccc(S(=O)(=O)N3CCCC3)cc2)c(=O)c2ccc(C)nc21
0.59	0.27	Cc1[nH]c(=O)c(C#N)c(C)c1Br
0.04	0.27	COc1cccc2cc(C(=O)OC(C)C(=O)c3ccc(C)cc3)c(=O)oc12 (centres undefined)
0.02	-0.26	CC1Sc2ccc(C(=O)Nc3ncccc3O)cc2NC1=O (centres undefined)
0.72	-0.15	CC(=O)NC[C@H]1CN(c2ccc(N3CCOCC3)c(F)c2)C(=O)O1
0.21	0.36	O=c1cc[nH]c2ccc([N+](=O)[O-])cc12
0.65	-1.2	Cc1nc(SCC(=O)Nc2ccccc2)c2oc3ccccc3c2n1
